Source: PubChem BioAssay (National Center for Advancing Translational Sciences (NCATS))
TRPV1 PAM: potentiators of human vanilloid receptor 1 (TRPV1); TRPV1-expressing cells, Fluo-8 calcium influx, capsaicin EC20 potentiation; host cell line not named in the record; control for the full effect not named in the record; Q8NER1; potentiation, % at 8.33 µM; hit rate 0.02% among 320,000; active means potentiation above 80%; inconclusive means 30% to 80%; inactive means below 30%; further: 0% is about no effect
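Cells expressing TRPV1 were dye-loaded with Fluo-8 and read kinetically: 10 s baseline, 3 min after compound (agonist portion), then 2 min after EC20 capsaicin (allosteric enhancer portion). Calcium-bound dye fluorescence at 480/520 nm.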
Sfp inh: blocks B. subtilis Sfp PPTase activity; hit rate 3.5% among 310,000; Q9F4F7; Potency, µM, without a hit: max response, negative = inhibition, usual class: inhibitors; Biochemical Sfp PPTase activity, qHTS; active means well fitted inhibition curve with a large enough effect; inconclusive means small, poorly fitted or top-dose-only effect, or another doubt; inactive means no such curve, though single readings can be large or run the other way;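 further: the enzyme is Sfp with the accession as filed and its product quenches rhodamine fluorescence; potency means the concentration at half of the fitted maximal effect; 0% = enzyme reaction without inhibitor and -100% = no enzyme wells; top concentration of the series not given in the record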
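Reaction rates are the 30-min fluorescence difference (ex 525, em 598 nm) in wells containing 15 nM Sfp, 5 uM rhodamine-CoA and 12.5 uM BHQ-2-YbbR at pH 7.6 with 10 mM MgCl2.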
PINK1 modulator: changes PINK1 expression | hit rate 0.2% among 410,000 | PINK1 immunofluorescence, high-content cytometry, 24 h | Potency, µM (titrated, usually from 76.6 µM), for the others: top-dose activation (PINK1 increase), most hits filed as activators; active = well fitted activation curve with a large enough effect; inconclusive = small, poorly fitted or top-dose-only effect; inactive = flat fitted curve, though single readings scatter; cell line not stated here;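 further: potency means the concentration at half of the fitted maximal effect; % of control where 0% means no effect; nearly all actives have a fitted effect of over 65% in size; a mitochondrial uncoupler was the plate control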
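Compound titrations (5 concentrations, 24 h) on a stable cell line; DMSO and CCCP controls. Endpoint: fixed-cell PINK1 immunofluorescence with mitochondrial, cell and nuclear markers, scanned by microplate cytometer.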
D2 ag: activates the human D2 dopamine receptor; P14416; DiscoveRx PathHunter D2 beta-arrestin, luminescence, 90 min; 100% = 57 uM dopamine signal; activation, % (concentration not given with the values); hit rate 0.084% among 360,000; in the data active = activation above about 40%; inconclusive = about 15% to 40%; inactive = below about 15%; further: compound concentration not given in the record; the text of the record calls up to 30% inactive
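Agonist mode: compounds alone added to overnight-plated D2 PathHunter cells for 90 min at 37 C, with 57 uM final dopamine (EC100) defining full response. Beta-arrestin recruitment detected by chemiluminescent reagent, read after 1 h at ambient temperature.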
CtBP-E1A inh: CtBP/E1A binding inhibition; AlphaScreen GST-E1A/His-CtBP binding, 1536-well; stronger effect = lower value; control for the full effect not named in the record; activity change, % (no concentration beside the values); hit rate 0.49% among 340,000; in the data active means activity change below about -65%; inconclusive means about -30% to -65%; inactive means above about -30%; further: on the % scale 0 is the no-effect control and ±100 the full control effect; compound concentration not given in the record
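Protein mix (5X: 125 nM each GST-E1A, His-CtBP) was incubated with pinned compound 2 h at 37 deg C in dark, in 50 mM Tris pH 8.0 buffer with 300 mM NaCl. Glutathione donor and nickel acceptor beads followed; AlphaScreen signal read after 1 h.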
D2 potentiator: human D2 receptor positive allosteric modulation; DiscoveRx D2 beta-arrestin cells, luminescence, 90 min; 100% = 57 uM dopamine signal; potentiation, % (test concentration not listed); hit rate 0.23% among 360,000; active = potentiation of 50% or more; inconclusive = 30% to 50%; inactive = 30% or less;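 further: compound concentration not given in the record; tested on top of an EC20 dose of dopamine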
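PathHunter D2 cells, attached overnight at 37 deg C, received compound in DMSO plus dopamine at EC20 (50 nM final) for 90 min at 37 deg C. Beta-arrestin recruitment was read as luminescence after 1 h with detection reagent at ambient temperature.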
Six1-Eya2 blk: Six1/Eya2 interaction inhibition. AlphaScreen GST-Six1/His-Eya2 binding, biochemical; stronger effect = lower value; control for the full effect not named in the record. activity change, % (no concentration beside the values). hit rate 0.56% among 360,000. AID 651725; in the data active = activity change below about -65%; inconclusive = about -30% to -65%; inactive = above about -30%; further: on the % scale 0 is the no-effect control and ±100 the full control effect; compound concentration not given in the record
Target sequence (O00167 whole entry, looked up): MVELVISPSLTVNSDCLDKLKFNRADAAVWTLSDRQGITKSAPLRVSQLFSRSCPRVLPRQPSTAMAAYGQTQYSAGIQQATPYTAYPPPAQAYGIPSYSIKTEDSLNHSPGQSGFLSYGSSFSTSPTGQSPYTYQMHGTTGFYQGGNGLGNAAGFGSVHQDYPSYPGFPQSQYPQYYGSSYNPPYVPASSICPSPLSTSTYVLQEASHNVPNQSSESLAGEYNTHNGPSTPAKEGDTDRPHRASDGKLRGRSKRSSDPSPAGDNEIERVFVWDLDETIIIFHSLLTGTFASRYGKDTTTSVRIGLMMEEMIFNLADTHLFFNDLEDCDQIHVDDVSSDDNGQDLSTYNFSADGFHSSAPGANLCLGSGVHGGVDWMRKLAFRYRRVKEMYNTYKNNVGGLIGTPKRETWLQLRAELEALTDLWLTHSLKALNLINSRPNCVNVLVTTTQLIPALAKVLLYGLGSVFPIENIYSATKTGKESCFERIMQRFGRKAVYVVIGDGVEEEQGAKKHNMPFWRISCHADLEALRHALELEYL
Target sequence (Q15475 whole entry, looked up): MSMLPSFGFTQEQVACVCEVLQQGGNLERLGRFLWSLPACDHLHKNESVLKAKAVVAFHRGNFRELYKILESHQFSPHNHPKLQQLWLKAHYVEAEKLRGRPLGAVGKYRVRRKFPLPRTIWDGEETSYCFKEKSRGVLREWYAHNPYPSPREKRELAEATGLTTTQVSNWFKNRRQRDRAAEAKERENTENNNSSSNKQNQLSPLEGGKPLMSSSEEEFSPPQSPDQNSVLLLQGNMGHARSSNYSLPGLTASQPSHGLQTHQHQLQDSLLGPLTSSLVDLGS
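AlphaScreen luminescence read after one hour at 37 °C in darkness. Pin-transferred compounds met GST-Six1 and His-Eya2 protein (5X stock 250 nM/500 nM) plus glutathione donor and Ni-chelate acceptor beads (5X, 50 ug/mL).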
* marks the source's active call; other numbers are inactive results; ? = inconclusive; . = no result given; & = joins results of further samples; [ ] = remark or other dose.

entry	molecule	TRPV1 PAM	Sfp inh	PINK1 modulator	D2 ag	CtBP-E1A inh	D2 potentiator	Six1-Eya2 blk
1	CC1CCCN(CCCCOc2cccc(Br)c2)C1 (stereo not drawn)	1	-7%	0.6%	0.1	7	-32	1
2	CCCCN1CC(=O)N2[C@H]3c4cc(C)ccc4OC[C@@H]3[C@H](c3ccccc3)[C@]2(C)C1=O	.	.	2.5%	-0.3	2	-7	-5
3	Cc1cccc(NS(=O)(=O)c2cc(OCC(N)=O)c(C)cc2Cl)c1	-8	5%	0.5%	1.1	-2	17	-4
4	CCC(c1nnnn1Cc1ccc(OC)cc1)N1CCN(C(=O)c2ccco2)CC1 (stereo not drawn)	16	-1%	4.5%	-3.8	6	-12	8
5	O=C(Nc1cc(=O)[nH]c2nc(-c3ccccc3)nn12)c1ccc(Cl)cc1	-8	6%	-0.8%	-1.6	9	-5	3
6	Nc1ccccc1Nc1ccncc1[N+](=O)[O-]	-2	16%	2.0%	-1.8	-15	-21	-18
7	CSC[C@H]1CN(CCc2ccccc2)C(=O)[C@@H]1CC(=O)Nc1ccc(Br)cc1	.	.	2.7%	1.5	-9	.	-10
8	CCn1c(COc2ccc3c(c2)CCCC3)nnc1SCC(=O)Nc1ccc(C(=O)OC)cc1	8	15%	2.0%	-1.5	1	-5	11
9	CCc1ccc(NC(=O)CSc2nc3ccccc3c(=O)n2CCN2CCOCC2)cc1	-2	-3%	4.5%	-3.1	-20	-13	2
10	CC(=O)Oc1ccc(C)cc1-n1nc2ccccc2n1	-10	1%	2.2%	-4.1	-7	-11	15
11	CCOc1cc(/C=N/n2cnnc2)ccc1OCC(=O)Nc1ccccc1OC	23	7%	2.1%	-3.0	-1	-33	-3
12	CC1CCC(NC(=O)C2CCC(CNc3c(N4CCCCC4)c(=O)c3=O)CC2)CC1 (stereo not drawn)	-11	17%	0.2%	-3.8	12	-3	1
13	CCOc1ccc(NC(=O)Nc2cc(-c3ccccc3)sc2C(=O)OC)cc1	-5	19%	-0.1%	4.7	-4	-7	-4
14	CCc1ccc(N2C(=O)c3sc4nnc(C)c(=O)n4c3C2=O)cc1	?	-3%	.	-2.7	1	-24	-1
15	O=S(=O)(Nc1ccccc1C(F)(F)F)c1ccc(-c2ccccn2)s1	-5	4%	2.1%	5.4	-4	-7	5

Screen by screen, from the results shown.
Entries 1 to 11 in PINK1 modulator, in turn: 0.6%, 2.5%, 0.5%, 4.5%, -0.8%, 2.0%, 2.7%, 2.0%, 4.5%, 2.2%, 2.1%

The listing picks up with the four entries that preceded the break.
entry	molecule	TRPV1 PAM	Sfp inh	PINK1 modulator	D2 ag	CtBP-E1A inh	D2 potentiator	Six1-Eya2 blk
12	CC1CCC(NC(=O)C2CCC(CNc3c(N4CCCCC4)c(=O)c3=O)CC2)CC1 (stereo not drawn)	-11	17%	0.2%	-3.8	12	-3	1
13	CCOc1ccc(NC(=O)Nc2cc(-c3ccccc3)sc2C(=O)OC)cc1	-5	19%	-0.1%	4.7	-4	-7	-4
14	CCc1ccc(N2C(=O)c3sc4nnc(C)c(=O)n4c3C2=O)cc1	?	-3%	.	-2.7	1	-24	-1
15	O=S(=O)(Nc1ccccc1C(F)(F)F)c1ccc(-c2ccccn2)s1	-5	4%	2.1%	5.4	-4	-7	5
16	Cc1onc(-c2ccccc2Cl)c1C(=O)NCc1nnnn1-c1ccc(F)cc1	-16	.	-0.2%	-0.5	-1	-3	-5
17	CCN(CC(=O)Nc1c(F)cccc1F)C(=O)C1(c2ccccc2)CC1	3	15%	-1.1%	-5.0	2	-16	-7
18	O=c1[nH]c2ccccc2nc1Cc1ccc([N+](=O)[O-])cc1	7	9%	1.1%	5.0	0	?	0
19	CC[N+]1(CC(O)COC2CC(C)CC(C)(C)C2)CCOCC1 (stereo not drawn)	1	3%	1.5%	-1.4	-2	6	23
20	CCN(c1ccccc1)S(=O)(=O)c1ccc(Cl)c(NC(=O)CSc2nncn2C)c1	-7	-5%	-1.6%	-5.2	4	-4	1
21	Cc1ccsc1/C=N/n1cnnc1	16	17%	0.6%	1.3	-2	-5	1
22	O=C(Nc1ccccc1N1CCCC1)c1ccc2ccccc2c1	-5	-8%	-0.6%	3.9	.	3	9
23	CN(C)S(=O)(=O)c1ccc(C(=O)NCC(c2cccs2)N2CCOCC2)cc1 (stereo not drawn)	12	.	-1.4%	-1.2	-20	-5	3
24	Cc1ccc(NC(=O)N(Cc2cc3cc(C)cc(C)c3[nH]c2=O)CC2COCCO2)cc1 (stereo not drawn)	-19	10%	1.0%	-1.6	-1	-13	2
25	O=C(NCC(c1ccco1)N1CCN(c2ccc(F)cc2)CC1)C(=O)NC1CCCCC1 (stereo not drawn)	?	.	2.4%	-0.6	5	1	2
26	COc1cccc(CN2CCN(Cc3cc(OC)c(OC)c(OC)c3)CC2)c1OC	-1	-20%	1.4%	5.3	-17	-11	-8
27	COc1ccccc1N(Cc1ccccc1)S(=O)(=O)c1cc(C(=O)O)ccc1Cl	-5	23%	2.6%	-4.8	5	8	9
28	CC12CCC(C(=O)N(c3cccc(Cl)c3)C1=O)C2(C)C (stereo not drawn)	10	13%	1.1%	-1.2	-26	3	-12
29	O=C(OCc1ccc(F)cc1)c1ccc2c(c1)-c1ccccc1C2=O	16	8%	-0.3%	-1.3	1	1	-7
30	O=C(C=Cc1ccco1)c1ccc2ccccc2c1	.	.	-4.3%	-2.8	-2	-16	-1

A few values from the results shown:
no. 2 – D2 potentiator = -7
no. 25 – CtBP-E1A inh = 5
no. 21 – CtBP-E1A inh = -2

The results go on.
entry	molecule	TRPV1 PAM	Sfp inh	PINK1 modulator	D2 ag	CtBP-E1A inh	D2 potentiator	Six1-Eya2 blk
31	COc1cccc(NC(=O)CN2C(=O)NC(C)(C3CC3)C2=O)c1 (stereo not drawn)	.	.	1.3%	2.9	-6	4	10
32	CC(C)(C)OC(=O)Cn1c(=O)cnc2ccccc21	1	10%	0.2%	-4.2	0	7	1
33	CCCn1c(N)c(C(=O)NS(=O)(=O)c2ccc(C)cc2)c(=O)n(C)c1=O	4	14%	4.1%	-2.3	.	-14	-5
34	O=C(c1ccccc1)c1nccn1-c1ccc(Cl)nn1	6	4%	2.0%	5.0	-8	0	4
35	Cc1cc(NC(=O)CSc2nc3c([nH]c4ccccc43)c(=O)n2-c2ccccc2F)no1	-8	-1%	2.0%&-5.1%	-7.1	-28	-14	-20
36	Cc1ccccc1NC(=S)N1CCN(C(=O)c2ccco2)CC1	1	2%	0.6%	-2.4	9	-3	11
37	COc1ccc(Cl)cc1Nc1nc(-c2sc(NC(=O)c3ccco3)nc2C)cs1	-5	?	0.6%	-4.8	-3	-7	-3
38	CCOC(=O)N1CCN(C(=O)CNC(=O)c2ccc(Cl)cc2)CC1	-6	-3%	-0.1%	-7.4	7	4	0
39	O=C(COc1ccccc1)Nc1nnc(C23CC4CC(CC(C4)C2)C3)s1	-4	24%	7.1%	-6.6	-10	1	5
40	CC(=O)N1c2ccccc2C(C)(c2ccccc2)CC1(C)C (stereo not drawn)	-9	-8%	-1.6%	-2.3	-1	-8	0
41	Cc1ccc(S(=O)(=O)CC(c2ccccc2)N2CCOCC2)cc1 (stereo not drawn)	-4	21%	.	-3.0	1	-19	5
42	COc1ccc(S(=O)(=O)Nc2cc(Sc3ncn[nH]3)c(O)cc2C)cc1	.	.	2.1%	0.0	-5	0	-1
43	N#Cc1nc(Cc2cccc3ccccc23)oc1NCCCN1CCOCC1	5	0%	-2.5%[38.3 µM]	-1.2	-27	-7	-8
44	O=S(=O)(/N=C(/Nc1ccccc1)c1ccccc1)c1cccs1	9	8%	-0.5%	-28	.	-12	5
45	O=C(NCc1ccncc1)C1CCN(S(=O)(=O)c2ccccc2)CC1	-6	.	-0.4%	-2.3	-11	2	10
46	COc1ccc(C(=O)Nc2ccc(C(=O)Nc3cccnc3)cc2)cc1	-1	6%	3.1%	-0.9	-4	-2	10
47	COc1cccc(CN(C)C(=O)c2ccc3nccnc3c2)c1	6	8%	-0.3%	0.4	0	-18	16
48	Cc1sc(NC(=O)CN2CCOCC2)nc1-c1ccc2c(c1)CCN2S(=O)(=O)c1ccccc1	9	-8%	2.1%[38.3 µM]	1.8	-14	-3	-16
49	COc1cccc(C#Cc2c(C=O)n(C)c3ccccc23)c1	2	.	40µM*	-2.8	116	-4	126
50	C/C(=N/NC(=O)CNC(=O)c1ccccn1)c1cccc([N+](=O)[O-])c1	2	-21%	0.2%	-3.3	1	-4	-3
51	CCOC(=O)C(C)Sc1nnc(NC(=O)c2ccc3c(c2)OCO3)s1 (stereo not drawn)	7	12%	0.3%	1.5	3	-2	2
52	Cc1ccc(NC(=O)c2cccc(OCc3c(C)noc3C)c2)c(C)c1	4	8%	8.5%	-1.6	-9	8	8
53	CCCCOP(=O)(OCCCC)C(Nc1ccc(C(=O)OCC)cc1)c1ccncc1 (stereo not drawn)	3	1%	3.9%	4.5	5	-3	3
54	CC(C)CNC(=O)c1cccc(NC(=O)CSc2ccc(Cl)cc2)c1	-1	11%	-0.6%	0.7	-11	0	3
55	c1ccc(COc2ncnc3c2ncn3CCCNCC2CCCO2)cc1 (stereo not drawn)	.	.	-1.0%	-1.5	-6	.	1
56	CCC(C)C(CO)NCCCn1cnc2c(OCc3ccccc3)ncnc21 (stereo not drawn)	.	.	-2.4%	-3.8	2	-4	3
57	CCCCc1noc2c1/C(=N\O)CC(c1ccccc1)C2 (stereo not drawn)	7	6%	-0.5%	-0.3	7	-4	11
58	C=CC(=O)Nc1ccc(CN2C(=O)N(c3c(Cl)c(OC)cc(OC)c3Cl)Cc3cnc(NCCCCN(CC)CC)nc32)cc1	.	.	-1.0%	11	-12	-12	-6
59	COc1cnc(-c2ccccn2)nc1N(C)C	?	16µM*	-2.2%	13	-94*	-6	-89*

Given with one line to a screen: entries from further up
(50) C/C(=N/NC(=O)CNC(=O)c1ccccn1)c1cccc([N+](=O)[O-])c1
(2) CCCCN1CC(=O)N2[C@H]3c4cc(C)ccc4OC[C@@H]3[C@H](c3ccccc3)[C@]2(C)C1=O

assay / compound	50	2
TRPV1 PAM	2	.
Sfp inh	-21%	.
PINK1 modulator	0.2%	2.5%
D2 ag	-3.3	-0.3
CtBP-E1A inh	1	2
D2 potentiator	-4	-7
Six1-Eya2 blk	-3	-5
